# Compound activity: PubChem, National Center for Advancing Translational Sciences (NCATS)
# StopGo reporter – High Throughput Screening for Foot and Mouth Disease Virus Antivirals | 410,000 tested, 1.2% active | AID 1159524, 2015 | human cells with a luciferase reporter of 2A StopGo recoding; control for the full effect not named in the record | Potency, µM (doses to about 57.9 µM), for the others: at the highest dose signal change, negative = less light; active = well fitted falling curve with a large enough effect; inconclusive = small, poorly fitted or top-dose-only effect; inactive = no such curve, though single readings can be large or run the other way; tested in HEK293T cells; also: % is scaled to controls: 0 for no effect and ±100 for the full control effect; nearly all actives have a fitted effect of over 45% in size; luciferase light after 4 h
# RE007 growth inh – qHTS Assay for Inhibitors of the HIV-1 protein Vpr; S. pombe RE007 Vpr strain, BacTiter-Glo ATP luminescence, 24 h; control for the full effect not named in the record; Potency, µM (series often up to 92.2 µM), inactives show at the highest dose activity change, negative = less growth; 360,000 tested, 0.21% active; AID 651644, 2012; active = well fitted falling curve with a large enough effect; inconclusive = small, poorly fitted or top-dose-only effect; inactive = no such curve, though single readings can be large or run the other way;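 also: % is scaled to controls: 0 for no effect and ±100 for the full control effect; nearly all actives have a fitted effect of over 50% in size; the assay follows cell death caused by Vpr and the record does not say whether a fall means rescue or toxicity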
#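 Fission yeast strain RE007, carrying one chromosomally integrated HIV-1 vpr copy, was seeded at OD 0.01 in PMG+AL medium with 23 nL pinned compound. After 24 h at 30 °C and 99% humidity, viability was read by BacTiter-Glo luminescence.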
# Cruzain inh Det – qHTS Assay for Promiscuous and Specific Inhibitors of Cruzain (with detergent) | Cruzipain (Trypanosoma cruzi), P25779 | purified cruzain, Z-FR-AMC fluorescence, 0.01% Triton | Potency, µM, for inactives: max response, negative = inhibition, usual class: inhibitors | 200,000 tested, 0.43% active | AID 1478, 2009; active = well fitted curve in the direction sought with a large enough effect; inconclusive = small, poorly fitted or top-dose-only effect, or another doubt; inactive = no such curve, though single readings can be large; an effect the other way counts as inactive or inconclusive;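 also: plate controls were neutral wells for no effect and buffer without enzyme for full effect; nearly all actives have a fitted effect of over 40% in size; top concentration of the series not given in the record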
# Target sequence (P25779 123-467 limits assumed): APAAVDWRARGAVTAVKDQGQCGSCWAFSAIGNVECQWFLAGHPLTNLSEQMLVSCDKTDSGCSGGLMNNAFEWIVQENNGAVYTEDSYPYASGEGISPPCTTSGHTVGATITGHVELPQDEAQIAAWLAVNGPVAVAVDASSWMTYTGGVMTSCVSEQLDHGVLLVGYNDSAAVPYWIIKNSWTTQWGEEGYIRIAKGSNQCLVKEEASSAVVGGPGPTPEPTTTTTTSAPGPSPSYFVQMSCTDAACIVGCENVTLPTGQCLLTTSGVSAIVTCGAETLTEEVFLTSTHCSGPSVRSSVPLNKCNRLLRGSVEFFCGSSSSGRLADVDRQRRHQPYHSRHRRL
#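 Detergent-containing run (0.01% Triton X-100) in acetate buffer pH 5.5 with 5 mM DTT: enzyme at 1.5 nM final, 15 min compound preincubation at room temperature, then 2 uM Z-FR-AMC substrate. Activity taken as 60 s fluorescence increase at 360/450 nm.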
# MARV entry inh – qHTS for inhibitors of binding or entry into cells for Marburg Virus; Marburg virus pseudotyped entry inhibition, cell reporter; control for the full effect not named in the record; about a third of the inactives were read at about 46 µM; 300,000 tested, 1.8% active; Potency, µM (doses to about 37.8 µM), for inactives: at the top dose activity change, negative = inhibition, hits mostly inhibitors; active = well fitted inhibition curve with a large enough effect; inconclusive = small, poorly fitted or top-dose-only effect, or effect the other way; inactive = flat fitted curve, though single readings scatter; tested in HEK293 cells; about a fifth of its hits are not listed in these tables; also: % is scaled to controls: 0 for no effect and ±100 for the full control effect; luciferase read-out
# SARS PLpro yeast – qHTS of Yeast-based Assay for SARS-CoV PLP; S. cerevisiae expressing SARS-CoV PLpro, growth rescue; control for the full effect not named in the record; Potency, µM (highest dose often 32.9 µM), for the others: top-dose activity, positive = growth rescue; 330,000 tested, 0.19% active; AID 485353, 2010; also: 0% is about no effect; nearly all actives have a fitted effect of over 55% in size; growth read by luminescence after 48 h
# NS1 inh – qHTS Assay for Inhibitors of Influenza NS1 Protein Function; S. cerevisiae slowed by influenza A NS1, growth recovery by OD600; Potency, µM (highest dose often 46.1 µM), for the others: at the highest dose activity, positive = more growth; 270,000 tested, 0.4% active; AID 2326, 2010; also: actives are rising curves; nearly all actives have a fitted effect of over 50% in size
#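 Compounds were scored for reversing the slow growth caused by influenza A NS1 in S. cerevisiae, measured by optical density at 600 nm. Assay medium contained 2% galactose at pH 6.0; NS1-free yeast of the same strain were the positive control.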
# LASV entry inh – qHTS for Inhibitors of binding or entry into cells for Lassa Virus. Lassa virus pseudotype entry inhibition, cell reporter; control for the full effect not named in the record. Potency, µM (series often up to 37.9 µM), for inactives: at the highest dose activity change, negative = inhibition, most hits filed as inhibitors. 300,000 tested, 1.2% active; active means well fitted inhibition curve with a large enough effect; inconclusive means small, poorly fitted or top-dose-only effect, or effect the other way; inactive means flat fitted curve, though single readings scatter; tested in HEK293 cells; also: % is scaled to controls: 0 for no effect and ±100 for the full control effect; nearly all actives have a fitted effect of over 50% in size; luciferase read-out
# Cruzain noTriton – qHTS Assay for Promiscuous and Specific Inhibitors of Cruzain (without detergent); Cruzipain (Trypanosoma cruzi), P25779; purified cruzain, Z-FR-AMC fluorescence, no detergent; Potency, µM, for the others: max response, negative = inhibition, hits mostly inhibitors; 200,000 tested, 2.3% active; active = well fitted curve in the direction sought with a large enough effect; inconclusive = small, poorly fitted or top-dose-only effect, or another doubt; inactive = no such curve, though single readings can be large; an effect the other way counts as inactive or inconclusive;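 also: plate controls were enzyme without inhibitor for no effect and buffer without enzyme for full effect; nearly all actives have a fitted effect of over 40% in size; top concentration of the series not given in the record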
#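 Purified cruzain at 1.5 nM, pre-incubated 15 min with compound at room temperature in 100 mM sodium acetate pH 5.5, 5 mM DTT, 0.00005% Triton X-100. Reaction started with 2 uM Z-FR-AMC; AMC fluorescence increase over 60 s gives rate.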
# * marks the source's active call; other numbers are inactive results; ? = inconclusive; / = not tested or not shown; & = joins results of further samples; [ ] = dose if it differs, or a comment. Unless noted, calls follow the shape of the dose curve; as a rule, active means well fitted rising curve with a large enough effect; inconclusive means small, poorly fitted or top-dose-only effect; inactive means no such curve, though single readings can be large or run the other way. Potency is read from the fitted curve at half-maximal effect.
SMILES,StopGo reporter,RE007 growth inh,Cruzain inh Det,MARV entry inh,SARS PLpro yeast,NS1 inh,LASV entry inh,Cruzain noTriton
CCOc1ccc(C(C)=O)cc1CN1C(=O)C(=O)N(CC)C1=O,14µM*,0%,/,?,-2%,-5%,15%[46.1 µM],/
COc1ccc(C(=O)Nc2nc3ccccc3[nH]2)cc1OC,21%,-2%,-11%,-20%,-2%,0%,12%,-15%
COC(=O)C(C)Sc1nnc(Cc2cc(=O)[nH]c(=O)[nH]2)n1-c1cc(C)ccc1C (stereo not given),-15%,-5%,10%,/,2%,6%,/,-5%
O=C(CSc1nc(-c2ccccc2)cs1)NCCN1C(=O)CSC1=O,10%,-14%,/,7%,7%,/,11%,/
Cc1cc(C)c(C(N)=O)c(SCC(=O)c2cc(C)c(C)cc2C)n1,?,15%,-1.3%,-18%,5%,12%,-9%,5%
COc1ccc(CN2CCN(C(=O)c3cccs3)CC2)cc1,?,33%,-0.3%,-3%&4%,5%,-3%,-29%,-8%
O=C(NC(=S)Nn1cnnc1)c1ccccc1Br,-1%,7%,/,/,2%,1%,/,/
Cc1cccc(CC(=O)Nc2c3c(nn2-c2cccc(Cl)c2)CS(=O)C3)c1 (stereo not given),-3%,-3%,0.6%,-25%,-14%,-13%,-16%[14.3 µM],19%
Cc1cccc(NC(=O)c2csnn2)n1,22%,-5%,/,10%[46.1 µM],4%,/,10%[46.1 µM],/
Cc1ccc(Cl)cc1N1CCN(C(=O)c2ccc3c(Cl)c4c(nc3c2)CCCC4)CC1,-8%,/,-1.9%,1%[46.1 µM],/,/,?,-4%

# Some of the entries above in a different format.
Cc1cccc(NC(=O)c2csnn2)n1
  StopGo reporter = 22%
  RE007 growth inh = -5%
  Cruzain inh Det = /
  MARV entry inh = 10%[46.1 µM]
  SARS PLpro yeast = 4%
  NS1 inh = /
  LASV entry inh = 10%[46.1 µM]
  Cruzain noTriton = /
Cc1ccc(Cl)cc1N1CCN(C(=O)c2ccc3c(Cl)c4c(nc3c2)CCCC4)CC1
  StopGo reporter = -8%
  RE007 growth inh = /
  Cruzain inh Det = -1.9%
  MARV entry inh = 1%[46.1 µM]
  SARS PLpro yeast = /
  NS1 inh = /
  LASV entry inh = ?
  Cruzain noTriton = -4%

# Additional entries follow.
SMILES,StopGo reporter,RE007 growth inh,Cruzain inh Det,MARV entry inh,SARS PLpro yeast,NS1 inh,LASV entry inh,Cruzain noTriton
Cc1noc(C)c1COC(=O)c1ccc2ccccc2n1,6%,21%,-3.2%,1%,-8%,-58%,7%,3%
Cc1cc(CN2CCCCC2)oc1C(=O)O,/,-17%,5.0%,5%,7%,1%,6%,-8%
O=C1OCCN1CC(=O)N1CCc2c([nH]c3ccccc23)C1c1ccccn1 (stereo not given),-8%,-20%,/,4%[46.1 µM],7%,3%,-12%[46.1 µM],/
CCCCCCCCN=Cc1c(O)[nH]c(=O)[nH]c1=O,-11%,1%,/,-14%[46.1 µM],2%,-1%,7%,/
Cn1c(=NC(=O)CN2C(=O)C3CC=CCC3C2=O)sc2ccccc21 (stereo not given),18%&16%,-21%&-4%,-3.9%,18%&14%,-1%,0%,16%&17%,-5%
COc1cc(C2C(C(=O)N3CCOCC3)=C(C)NC3=C2C(=O)CCC3)ccc1OC(C)=O (stereo not given),/,11%,4.2%,3%,-2%,0%[9.22 µM],14%,-1%
CCc1cccc2sc(N3CCN(C(=O)c4ccc([N+](=O)[O-])o4)CC3)nc12,?,-18%,/,5µM*,6%,/,?,/
Cc1ccc2nc(NC(=O)CSc3ncnc4c3oc3ccccc34)sc2c1,-3%,1%,-0.1%,/,-9%,10%,/,?
COc1c(OC(C)=O)ccc(/C=C/c2ccc3cccc(OC)c3n2)c1[N+](=O)[O-],7%,15%,-9.2%,?,-37%,20%,-18%,?
COc1ccc2c(c1)cc(CNc1ccc(OC)c(OC)c1)c(=O)n2CC(=O)Nc1ccc(F)cc1,-16%,/,-8.9%,/,/,/,-3%[46.1 µM],18%
Cc1cc(C)cc(NC(=O)CN2CCC(NC(=O)c3cccc(F)c3)CC2)c1,0%,-3%,/,-22%,1%,4%,-3%,/
COCCn1c(-c2ccccc2)cnc1SCC(=O)Nc1cccc2ccccc12,-3%,/,-8.4%,?,-18%,-1%,?,2%
CN=C(N)NCCC[C@H](N)C(=O)O,-12%&-19%,-12%,1.2%,?,/,/,6%,1%
COc1ccc(NC(=O)c2cc(=O)c3ccc(C)c(C)c3o2)cc1Cl,-19%,/,-1.3%,4%[46.1 µM],/,/,-1%[46.1 µM],-1%
C=CCN1C(=O)c2ccccc2Sc2ccc(C(=O)NCCC)cc21,-10%,-6%,/,/,-4%,-8%,/,/
CCC(C(=O)Nc1ccccc1-c1ccccc1)c1ccccc1 (stereo not given),-26%,-6%,0.6%,-15%[46.1 µM],6%,-6%,1%,2%
Cc1ccc([N+](=O)[O-])cc1S(=O)(=O)Nc1ccc(C(=O)N(C)C)cc1,0%,6%,/,6%[46.1 µM],1%,0%,9%,/
COc1cccc(NC(=O)C2C3C=CC(O3)C2C(=O)O)c1 (stereo not given),-2%,-23%,/,-5%[46.1 µM],-21%,26%,5%[46.1 µM],/
Cc1ccc(C)c(Cn2nnc3c(=O)[nH]c(C4CCCN(C(=O)c5cccs5)C4)nc32)c1 (stereo not given),-1%,7%,/,?,6%,20%,?,/
O=C(Nc1ccc2[nH]ccc2c1)c1cccs1,26%,-20%,/,/,-1%,-43%,/,/

# Profiles as entered above. Screens in order: StopGo reporter	RE007 growth inh	Cruzain inh Det	MARV entry inh	SARS PLpro yeast	NS1 inh	LASV entry inh	Cruzain noTriton
# `C=CCN1C(=O)c2ccccc2Sc2ccc(C(=O)NCCC)cc21` as listed: -10%	-6%	/	/	-4%	-8%	/	/
# `O=C(Nc1ccc2[nH]ccc2c1)c1cccs1` as listed: 26%	-20%	/	/	-1%	-43%	/	/

# Continuation:
SMILES,StopGo reporter,RE007 growth inh,Cruzain inh Det,MARV entry inh,SARS PLpro yeast,NS1 inh,LASV entry inh,Cruzain noTriton
COC(=O)c1cccc(NC(=O)c2ccc3c(c2)C(=O)N(CC2CCCO2)C3=O)c1 (stereo not given),?,5%,1.1%,-14%,-3%,-14%,1%,14%
Cc1nc(C(=O)NNC(=O)c2ccc(C(F)(F)F)cc2)cs1,38%[activator],-15%,/,?,1%,1%,-17%,/
C[C@]12CCC3C(CC[C@H]4C[C@H](O)CC[C@]34C)C1CC[C@@H]2C(=O)CO (stereo not given in full),/,/,-4.7%,?,/,-10%,?,-15%
CCOc1cccc(C(=O)N(Cc2ccc(C(C)C)cc2)C2CCS(=O)(=O)C2)c1 (stereo not given),-10%,/,-8.5%,?,/,/,-18%[46.1 µM],?
COc1cccc(OC)c1C(=O)Nc1ccc(Br)c(C(=O)c2ccccc2)c1,?,-11%,/,/,-42%,-33%,/,/
COc1ccc(-n2ncc(C(C)NS(=O)(=O)c3cc(F)ccc3C)c2C)cc1 (stereo not given),-19%,7%,/,-2%,1%,14%,-14%,/
COc1cc(OC)c(NS(=O)(=O)c2cc(C(=O)OC(C)C(=O)NC3CC3)c(Cl)cc2Cl)cc1Cl (stereo not given),10%,3%,-5.9%,?,4%,-11%,-6%&14%,?
O=C(Cn1c(=O)n(Cc2nc(-c3ccccc3)no2)c(=O)c2ccccc21)Nc1cccc(C(F)(F)F)c1,20µM*,/,-3.8%,/,/,/,9%[46.1 µM],?
O=c1cc(-c2ccc(F)cc2)nc(SCc2nc(-c3ccc(Cl)cc3)no2)[nH]1,6%,/,1.9%,/,/,/,8%[46.1 µM],7%
Cc1cc(NC2CCCCC2)nc(N2CCOCC2)n1,/,3%,2.1%,?,-2%,0%,2%,-6%
O=C(CSc1ncc(-c2ccccc2)[nH]1)Nc1ccc(Cl)cc1,34%[activator],/,-13%,?,/,/,0%[46.1 µM],-12%
COc1ccc(-n2cnc3sccc3c2=O)cc1,-2%,0%,/,1%[46.1 µM],3%,7%,16%[46.1 µM],/
Cn1c(SCC(=O)Nc2cccc(S(=O)(=O)N3CCOCC3)c2)nnc1-c1ccncc1,-2%,-11%,/,17%[46.1 µM],6%,/,-15%,/
Cc1cc(C)c2cc(CN(Cc3ccco3)C(=O)NCc3ccccc3)c(=O)[nH]c2c1,-1%,-9%,-8.1%,2.8µM*,7%,?,?,-13%
Cc1nc(C)c(C(=O)OCC(=O)N2CCN(c3ccccc3)CC2)s1,-20%,-8%,3.8%,10%,-4%,-1%,-8%,0%
CCC(C)NC(=O)Cn1c(COc2ccc(Cl)cc2Cl)nc2ccccc21 (stereo not given),43%[activator],3%,-1.5%,?,9%,-1%,6%,-15%
O=C(Nc1ccccn1)c1ccc(C(=O)Nc2ccccn2)cc1,28%,-4%,/,/,-4%,-2%,/,/
O=C(O)COc1ccc(NC(=O)c2ccc3c(c2)C(=O)N(Cc2ccccc2)C3=O)cc1,-3%,-3%,/,0%,4%,?,8%,/
S=c1nc[nH]c2c1ncn2C1CCCO1 (stereo not given),-13%,-3%,/,?,2%,1%,?,/
CCOC(=O)N1CCN(C(=O)c2ccccc2NC(=O)COc2ccccc2)CC1,?,0%,/,-13%[46.1 µM],-1%,1%,-18%,/
CCC1=NN2C(=N)/C(=C/c3cc(C)n(Cc4ccccc4)c3C)C(=O)N=C2S1,-10%,11%,/,-6%,-1%,2%,18%,/
